Assay outcomes (PubChem BioAssay)
NPYLR7 ag: agonists of mosquito NPYLR7 receptor, primary screen, cell-based, Aedes aegypti, calcium fluorescence, mosquito biting behavior; activation, % at 10 µM; HEK293T NPYLR7/Galpha15, GCaMP6s calcium fluorescence; 270,000 tested, 0.15% active; in the data active = activation above about 40%;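 note: 0% = vehicle and 100% = reference agonist at the receptor; some compounds past the cut are filed as inactive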
NPYLR7 ag max-min: second read-out of NPYLR7 ag, no call of its own (marks repeat the call); activation, %; measured here: Max-Min RFU normalised activation; some inactives read as strong as hits;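 span of the calcium signal over five minutes; 0% = vehicle and 100% = native peptide agonist; compound fluorescence can raise it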
* hit, by the source's call. Not all compounds are listed. The share of hits here may be higher or lower than overall.

SMILES	NPYLR7 ag	NPYLR7 ag max-min
CC(C)OC(=O)CC(NC(=O)c1cccc(S(=O)(=O)NCC2CC2)c1)c1ccccc1 (stereo not drawn)	-1	19
CCC(C)N(CC(=O)Nc1sccc1C#N)CC(=O)Nc1sccc1C#N (stereo not drawn)	4	4
COc1ncc(C)cc1NC(=O)N(CCN(C)C)Cc1ccco1	0	-2
COc1ccc(-c2nn(-c3ccccc3)cc2CN2CCCC2c2nccs2)c(F)c1 (stereo not drawn)	1	-9
O=C(Nc1cccnc1N1CCN(C(=O)c2cccnc2Cl)CC1)c1ccc2c(c1)OCO2	-6	7
CCOCC(=O)N(C1CC1)C(C)c1ccc2c(c1)OCCCO2 (stereo not drawn)	5	6
Cc1ccc(S(=O)(=O)c2c(C)nn(C(C)(C)C)c2OC(=O)c2ccccc2)cc1	10	19
Cc1ccc2c(c1)NC(=O)C2CC(=O)N(C)Cc1ccsc1 (stereo not drawn)	0	-5
COc1ccccc1C(=O)N1CCCC(C(=O)NC2CCCC[C@H]2N(Cc2ccc(Cl)cc2)C(=O)c2ccccc2)C1 (stereo partly drawn)	21	24
Cc1ccc2[nH]nc(C(=O)NCCSc3n[nH]c(C)n3)c2c1	-3	0
CNC(=O)c1c(-c2ccccc2)n(C)c2ccccc12	1	1
COc1ccc(OC)c(NC(=O)N2CCOC(CCN(C)C)C2)c1 (stereo not drawn)	20	2
Cc1nc2c(c(=O)[nH]1)CCN(C(=O)Cn1cc(C(F)(F)F)ccc1=O)C2	9	5
Cc1ccnc(N2CCOc3c(O)cc(-c4ccccc4C)cc3C2)n1	2	2
O=c1c2cnc(N3CCOCC3)nc2ccn1C1CCCC1	3	7
O=C(NCCc1nnc2ccc(NCCc3ccccc3)nn12)c1ccccc1	3	-8
CNc1ccc(Cl)cc1C(=O)N1CCN2CCNC(=O)C2C1 (stereo not drawn)	5	4
Cc1ccccc1C(=O)Oc1cccc2cccnc12	4	-3
CCN(CC)C(=O)Cn1cc(SCC(=O)NC2CCCCC2)c2ccccc21	-3	-3
Clc1nc2sccn2c1CN1CCCC2(CCNCC2)CC1	6	5
O=C(c1cn(-c2ccccc2)nn1)N1CCN(CCc2ccccn2)CC1	1	3
N#Cc1ccc(O)c(NC(=O)c2ccncc2F)c1	-1	6
COc1ccc(Cc2nc3ccc(C(=O)NCC4CCOCC4)cc3o2)cc1OC	7	3
COCCNC(=O)[C@@]1(OCc2ccccc2F)CC(OCc2cccc(OC(F)(F)F)c2)[C@H](O)[C@H](O)C1 (stereo partly drawn)	3	5
O=C(NCc1ccccc1S(=O)(=O)N1CCCCC1)c1ccccc1Br	12	15
O=C(c1n[nH]c2ccccc12)N1CCOC(COCc2ccccc2F)C1 (stereo not drawn)	11	26
CCNC(=O)C1(C)CCCN(Cc2csc(-c3ccccc3)n2)C1 (stereo not drawn)	5	1
Cc1cccc(NC(=O)c2cn(CC3CCCO3)cc3c(=O)n(-c4ccccc4)nc2-3)n1 (stereo not drawn)	3	3
CCC(C(=O)N(CC(=O)N1CCc2sccc2C1c1ccccc1C)C1CCCCC1)c1ccccc1 (stereo not drawn)	25	24
COc1cc(NC(=O)N2CCC3(CC2)SCCN3C(=O)COc2ccccc2)cc(OC)c1	4	3
Cc1sc(NC(=O)Nc2cccc(F)c2)c(C#N)c1C	5	3
CCOCCCn1c(SCc2cc(F)ccc2C)nc2cc(S(=O)(=O)N3CCOCC3)ccc21	29	17
N#Cc1c(N)n(-c2cccc(S(N)(=O)=O)c2)c2nc3ccccc3nc12	4	5
O=C1CCC(C(=O)N(Cc2cccs2)C2(C(=O)NC3CCCCC3)CCCCC2)N1 (stereo not drawn)	0	-2
CCC(NC(=O)c1ccccc1-n1cncn1)c1ccnn1C (stereo not drawn)	9	4
CCN1CCN(c2ncnc(Oc3ccc(F)cc3F)c2N)CC1	25	14
CCOC(=O)c1ccc(N2CCN(C(=O)c3cc(C)cc(Br)c3O)CC2)nc1	-5	-5
CCOC(=O)Cn1c(=O)c2c(nc3n2CCCN3c2ccccc2)n(C)c1=O	7	4
CCOc1ccc(NC(=O)C(C)Sc2nc(N)cc(N)c2C#N)cc1 (stereo not drawn)	-3	2
Cc1ccc2nc(SCC(=O)Nc3ccc(F)cc3F)nc(=O)n2c1	3	1
CCS(=O)(=O)CC(C(C)(C)C)S(=O)(=O)CC (stereo not drawn)	5	2
CCCCNC(=O)C1(C)CCN1C(=O)c1cccc(OC(F)(F)F)c1 (stereo not drawn)	1	-2
Cc1c(Cl)cccc1N=Nc1c(-c2ccccc2)[nH]n(-c2ccccc2)c1=O	-4	-11
CNC(=O)c1c(NC(=O)c2nc3ccccc3s2)sc2c1CCC2	-3	-4
Fc1cccc(-c2nccc3n[nH]c(C4CC4)c23)c1	5	3
CCc1ccc2oc(-c3cccc(NC(=O)c4cc(OC)c(OC)c(OC)c4)c3)nc2c1	-2	8
CCCc1[nH]n(-c2cccc(Cl)c2)c(=O)c1/C=C1\NC(=O)N(Cc2ccc([N+](=O)[O-])cc2)C1=O	-11	-7
COc1ccccc1-c1cc(C(=O)N2CCC(Cc3ccccc3)CC2)n2nc(-c3ccc(Cl)cc3)cc2n1	16	18
COCc1nc(C)nc(N2CCN(C(=O)CC(C)CC(C)(C)C)CC2)c1Cc1ccc(OC)cc1 (stereo not drawn)	-1	1
CCOC(=O)C1=C(O)/C(=C\c2ccncc2)SC1=Nc1ccccc1OC	5	1
COc1ccc(-c2c3c(=O)n(Cc4ccco4)ccc3nc3nc(C)nn23)cc1	0	-3
CC(C#N)Sc1nnc(-c2ccc(C(C)(C)C)cc2)o1 (stereo not drawn)	0	20
Cn1ccnc1SCc1cc(=O)c(OC(=O)c2cc(C(F)(F)F)cc(C(F)(F)F)c2)co1	-3	-4
Cc1ccc(NC(=O)c2c(NC(=O)c3ccc(F)cc3)sc3c2CCCC3)cc1C	-4	-8
Cc1ccc(C(O)=C2C(=O)C(=O)N(CCN3CCOCC3)C2c2ccc([N+](=O)[O-])cc2)cc1 (stereo not drawn)	-1	4
Cc1nc2sccn2c1C(=O)c1sc2cc(Cl)ccc2c1Cl	0	-1
Cc1cccc(CNC(=O)N2CCSC23C(=O)N(Cc2c(F)cccc2F)c2ccccc23)c1 (stereo not drawn)	3	9
O=C(Nc1ccc(-c2ccccc2)cn1)C1CC(=O)N(CC2CC2)C1 (stereo not drawn)	6	5
CC(C)(C)n1ncc2c(=O)n(NC(=O)c3cccs3)cnc21	0	-4
C=CCN(Cc1ccccc1Cl)C(=O)c1ccc(C#CC(C)(C)O)cc1	16	8
New compounds follow:
SMILES	NPYLR7 ag	NPYLR7 ag max-min
COc1ccccc1CCN1CCCC(CN(C)C(=O)NCc2ccccc2)C1 (stereo not drawn)	1	-3
COc1ccccc1-c1cnc2c(Nc3cccc(OC(F)(F)C(F)F)c3)nccn12	-3	-8
CCn1nc(CC(C)C)cc1C(=O)N1CCCC(Nc2ccc(F)cc2)C1 (stereo not drawn)	-5	-6
c1cc2nnnn2nc1NCC1(N2CCCCC2)CCCCC1	8	6
CCCn1c(C(C)NC(=O)CC)nc2ccccc21 (stereo not drawn)	-5	-8
COc1cc(=O)n(-c2ccccc2C)nc1C(=O)NC1CCCCCC1	7	3
CCc1nc2ccc(C(=O)NCCC(C)C)cn2c1N(CC)Cc1ccc(OC)c(OC)c1	6	21
O=C(NCCCn1nc(-c2ccccc2)ccc1=O)NC1CCCCC1	-1	-2
Cc1nc(CN2C(=O)CSC2=CC(=O)C(C)(C)C)oc1C	12	9
COc1cccc(N=Nc2c(C)[nH]n(-c3ccccc3)c2=O)c1	5	2
Cc1c(C(=O)NCCO)nnn1-c1ccc2noc(-c3ccc(Br)cc3)c2c1	4	9
CCCc1nc(C)c(C(=O)NC(C)(C)c2ccccc2)s1	0	-2
O=C(NCc1ccccc1)C1CC(=O)N(c2ccc3c(c2)OCCO3)C1 (stereo not drawn)	3	2
CCc1sc(C(=O)Nc2ccc(C(=O)NC)c(Cl)c2)cc1C	-3	-4
O=C(Nc1ccnn1C1CCN(Cc2ccon2)CC1)c1ccc2c(c1)OCO2	5	5
CNc1nc2cnc(Nc3ccc(OC)c(OC)c3)cc2n1-c1ccccc1	6	-4
Cc1nc2c(SCC(=O)NC(C)(C)C)nnc(-c3ccccc3)c2s1	-1	-4
COc1ccccc1-c1cc(C(=O)NC(C)C)nc2cc(-c3ccccc3)nn12	8	14
Cc1[nH]c(=O)n(C)c(=O)c1CCC(=O)Nc1ccccc1	-7	-12
Cc1nc2c(c(NCc3c(C)n[nH]c3C)n1)CNC2	7	3
Cc1ccc(N2CC(NC(=O)N(C)C3CCN(C)CC3)CC2=O)cc1C (stereo not drawn)	13	11
Cc1nc(C(C)C)sc1C(=O)N1CCN(Cc2ccccc2CO)CC1	10	-1
O=S(=O)(c1ccc(Oc2nc(C(F)(F)F)nc3ccccc23)cc1)N1CCOCC1	1	7
COc1ccccc1CN(C(=O)C(C)Sc1ccccn1)C1CC1 (stereo not drawn)	-1	-3
COc1ccccc1CN(C)C(=O)c1cc(CN2CCOCC2)on1	1	-3
CCOc1cccc(C=NCCc2cccs2)c1O	-1	-2
Cc1cc(-c2nccn2CCc2csc(-c3cnccn3)n2)cc(C)c1O	4	8
Cc1ccc(-n2c(C)c(C)n3c4c(=O)n(CCN5CCCCC5)c(=O)n(C)c4nc23)cc1C	4	2
COCCN(Cc1cc(NC(=O)C2CCC2)ccc1N(C)C)C(=O)Nc1cccc(F)c1	3	14
CCC(C(=O)Nc1cccc(C2SCC(=O)N2c2cccc(OC)c2)c1)c1ccccc1 (stereo not drawn)	12	15

Part of the list above, with values under each structure.
The line under a structure holds: NPYLR7 ag, NPYLR7 ag max-min
O=S(=O)(c1ccc(Oc2nc(C(F)(F)F)nc3ccccc23)cc1)N1CCOCC1
    1, 7
COc1ccccc1CN(C(=O)C(C)Sc1ccccn1)C1CC1 (stereo not drawn)
    -1, -3

(further entries)
SMILES	NPYLR7 ag	NPYLR7 ag max-min
O=C(NC1CC1)[C@@]1(OCc2cccc(C(F)(F)F)c2)CC(OCc2cccc(OC(F)(F)F)c2)[C@H](O)[C@H](O)C1 (stereo partly drawn)	6	17
COCc1cnc2c(c1SCC(=O)Nc1nc(C)cs1)c(=O)n(C)c(=O)n2C	5	10
CN(Cc1ccnc2ccccc12)C(=O)CCN1CCCO1	7	6
CCN(CCc1ccccn1)C(=O)c1cc(F)cc2nc(C)c(C)nc12	-4	-5
Cc1c(CN2CC3(CCNCC3)CC2C(=O)O)c(=O)n(-c2ccccc2)n1C (stereo not drawn)	13	13
Cc1cccc(-c2ncc(CN3CCN(C)C(CCO)C3)cn2)c1 (stereo not drawn)	1	2
CC(C)(C)C(N)COc1ccccc1F (stereo not drawn)	17	10
CN(C)c1cc(N2CCN(CCCC#N)CC2)nc(N(C)C)c1C#N	11	11
CNC(=O)CN1CCN(c2ncnc3cc4ccccc4cc23)CC1	-1	-2
COc1cc(C2C3C(=O)CC(C)(C)CC3=Nc3ccccc3N2C(C)=O)cc(OC)c1OC (stereo not drawn)	-8	-15
COCCCN(CC(=O)N(CCc1c[nH]c2ccccc12)Cc1ccc(Cl)c(Cl)c1)C(=O)c1cccc(C(F)(F)F)c1	14	15
COc1cn(CC(=O)Nc2cc(C(F)(F)F)ccc2Cl)c(CN2CCOCC2)cc1=O	3	1
O=S(=O)(Cc1csc(Br)c1)CC(O)Cn1cccn1 (stereo not drawn)	-4	-5
O=C(C1C=CCN1)N1CCC(c2cc(-c3ccccc3Cl)n[nH]2)CC1 (stereo not drawn)	25	20
CCCCNC(=O)N1CCN(c2nc(CCc3ccccc3)nc3sc(C)c(C)c23)CC1	-15	-9

Single records, from the list above. Screens in order: NPYLR7 ag | NPYLR7 ag max-min
CCN1CCN(c2ncnc(Oc3ccc(F)cc3F)c2N)CC1 reads 25 | 14
CC(C)OC(=O)CC(NC(=O)c1cccc(S(=O)(=O)NCC2CC2)c1)c1ccccc1 (stereo not drawn) reads -1 | 19
Cc1ccc(-n2c(C)c(C)n3c4c(=O)n(CCN5CCCCC5)c(=O)n(C)c4nc23)cc1C reads 4 | 2
CCn1nc(CC(C)C)cc1C(=O)N1CCCC(Nc2ccc(F)cc2)C1 (stereo not drawn) reads -5 | -6
CCC(NC(=O)c1ccccc1-n1cncn1)c1ccnn1C (stereo not drawn) reads 9 | 4

Next part.
SMILES	NPYLR7 ag	NPYLR7 ag max-min
Cc1ccc(CN(Cc2ccc(F)cc2)C(=O)CN(CCN2CCCCC2)C(=O)c2ccccc2Cl)s1	-2	-1
COc1cccc(C(=O)N(CCN2CCOCC2)CC(=O)N2CCc3sccc3C2COc2ccc(F)cc2)c1 (stereo not drawn)	-2	1
CC(OC(=O)c1ccco1)C(=O)Nc1ccc(OC(F)F)c(Cl)c1 (stereo not drawn)	6	6
O=C(Nc1nnc(-c2ccc3c(c2)OCO3)s1)C1CCCCC1	-5	-11
COCc1ccc(C(=O)N2CC(=O)N(CC(C)C)CC(OCc3ccccn3)C2)s1 (stereo not drawn)	13	-1
CCCn1nc(C)c(CNC(=O)C(C)n2cnc3ccccc32)c1C (stereo not drawn)	-4	-10
CC1(C(=O)NCc2cccnc2)CCN1C(=O)c1cccc(F)c1 (stereo not drawn)	3	1

Reformatted bar-delimited: part of the list above
molecule | NPYLR7 ag | NPYLR7 ag max-min
COCc1ccc(C(=O)N2CC(=O)N(CC(C)C)CC(OCc3ccccn3)C2)s1 (stereo not drawn) | 13 | -1
CCCn1nc(C)c(CNC(=O)C(C)n2cnc3ccccc32)c1C (stereo not drawn) | -4 | -10
